miR-21 reporter = raises the signal of a miR-21 reporter | AID 2288 | 340,000 tested, under 10 active | HeLa miR-21 FLuc reporter, luciferase, 48 h | Potency, µM (doses to about 38.3 µM), for inactives: at the top dose reporter change, positive = more light; active = well fitted rising curve with a large enough effect; inconclusive = small, poorly fitted or top-dose-only effect; inactive = no such curve, though single readings can be large or run the other way;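 further: % of control where 0% means no effect; miR-21 action dims this reporter so a rising signal means less miR-21 action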
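Luminescence from a firefly luciferase reporter carrying a miR-21 binding site downstream, stably expressed under a CMV promoter in HeLa cells that make miR-21 endogenously, reports miRNA modulation after 48 h compound exposure up to approximately 40uM final.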
Rango complex inh = inhibitors of Rango-importin beta complex formation; Potency, µM (series often up to 92.2 µM), inactives show at the highest dose inhibition of complex formation; Rango CFP/YFP FRET sensor + importin beta, 45 min; hit rate 0.031% among 340,000; Q14974; AID 540263; active = rising FRET ratio curve, often small or poorly fitted; inconclusive = mostly compound fluorescence or quenching in the first reads; inactive = flat curves in all reads;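 further: potency means the concentration at half of the fitted maximal effect; 0% = DMSO wells and 100% = buffer wells lacking importin beta; nearly all actives have a fitted effect of over 15% in size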
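FRET biosensor (snurportin 1 IBB flanked by EYFP and cerulean), 50 nM, with compound 5 min, then 0.125 microM importin beta in PBS, 1 mM DTT, 0.02% Tween-20, 0.1% BSA. CFP/YFP ratio read after 45 min at room temperature; pre-read flags interference.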
GLA inh pH 4.5 = inhibitors of human alpha-galactosidase A at pH 4.5; P06280; AID 1467; purified enzyme, 4-MU-alpha-Gal fluorescence, pH 4.5; activity change, negative = inhibition, % at 105 µM; 230,000 tested, under 10 active; inconclusive = small, poorly fitted or top-dose-only inhibition, or a rising curve; inactive = flat fitted curve, though single readings scatter; no compound was filed as active;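 further: 0% = full activity with enzyme and -100% = basal without enzyme; dose as in the result columns while the protocol names 77 µM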
Target sequence (P06280 whole entry, looked up): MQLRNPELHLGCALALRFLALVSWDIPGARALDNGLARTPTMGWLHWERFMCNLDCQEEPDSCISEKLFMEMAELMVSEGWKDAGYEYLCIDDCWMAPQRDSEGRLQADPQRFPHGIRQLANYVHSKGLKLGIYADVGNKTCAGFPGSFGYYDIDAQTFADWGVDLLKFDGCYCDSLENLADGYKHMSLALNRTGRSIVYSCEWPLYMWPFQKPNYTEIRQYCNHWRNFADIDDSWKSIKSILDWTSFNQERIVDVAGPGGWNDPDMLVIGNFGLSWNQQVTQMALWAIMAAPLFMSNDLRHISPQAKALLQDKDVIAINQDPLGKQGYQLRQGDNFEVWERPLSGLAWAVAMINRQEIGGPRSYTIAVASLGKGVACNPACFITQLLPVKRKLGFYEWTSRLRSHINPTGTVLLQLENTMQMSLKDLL
Rango dissoc inh = inhibitors of RanGTP-induced Rango-importin beta complex dissociation. hit rate 0.071% among 340,000. O95149+P62826. AID 540253. Biochemical FRET Rango-importin beta, RanGTP-induced dissociation. Potency, µM (highest dose often 46.1 µM), for the others: at the highest dose activity change, negative = inhibition; active means falling FRET ratio curve, often poorly fitted, with flat reads before Ran was added; inconclusive means other falling curves, or compound fluorescence or quenching; inactive means flat or rising ratio curve;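 further: potency means the concentration at half of the fitted maximal effect; % of control where 0% means no effect; nearly all actives have a fitted effect of over 45% in size; -100% = wells without RanGTP and RCC1; the record marks most hits as doubtful in a second field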
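Rango FRET biosensor (snurportin-1 IBB flanked by N-terminal EYFP and C-terminal CFP10) at 0.1 uM, with 0.25 uM importin beta in PBS, 1mM DTT, 0.02% Tween-20, 0.1% BSA. 0.6 uM Ran, 2mM GTP and 0.2 uM RCC1 were then added for 45 min at room temperature. Inhibition read as loss of FRET rise.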
The depositor's hits bear a star; ? = inconclusive; nt = not tested or not shown; [ ] = another dose, or the depositor's remark. This is a subset (hit frequency here may not be typical).

SMILES	miR-21 reporter	Rango complex inh	GLA inh pH 4.5	Rango dissoc inh
Cc1ccc(SCn2nnc3ccccc3c2=O)c(C)c1	-53%	-0.5%	1	5%
CCOc1cc(/C=C/c2cc(C(=O)O)c3ccccc3n2)ccc1O	0%	0.4%	-4	-14%
CCOC(=O)c1c(SC)n(-c2ccccc2)c(=S)n(-c2ccccc2)c1=O	4%	-0.3%	nt	-9%
O=C(CSc1ccccc1F)Nc1ccc2c(c1)OCO2	nt	-0.3%	nt	18%
C=CCN(C(=O)CCC(=O)Nc1cc(C)on1)C(C(=O)NC1CCCC1)c1ccc(OC)cc1OC (stereo not drawn)	0%	2.6%	nt	11%
O=C(NCc1cccnc1)C(=O)NCC1OCCCN1S(=O)(=O)c1ccc(F)cc1 (stereo not drawn)	-2%	-0.1%	nt	-1%
CC(=O)Nc1ccc(NC(=O)Nc2ccc3c(c2)N(C)C(=O)CS3)cc1	20%	-0.7%	5	-3%
CCc1cc2c(=O)c(-c3nc4ccccc4n3C)c(C)oc2c(CN2CCOCC2)c1O	6%	-1.6%	2	-8%
c1cncc(CNc2ncnc3sccc23)c1	6%	1.2%	5[21.1 µM]	-12%
O=C(Nn1cnnc1)c1cc([N+](=O)[O-])cc([N+](=O)[O-])c1	-10%	-1.3%	-8	-27%
Cn1c(NCCO)nc2c1c(=O)n(Cc1cccc(Cl)c1)c(=O)n2C	-7%	0.1%	nt	0%
CCCNC(=O)c1ccc2snnc2c1	-10%	5.5%	5	5%
O=C1/C(=C/c2ccc(O)cc2)SC(=S)N1CC1CCCO1 (stereo not drawn)	-34%	?	-23	?
O=C(Nc1ccc2nc(-c3ccco3)c(-c3ccco3)nc2c1)NC1CC1	-17%	?	-2	?
Cc1c(C)n(CCc2ccccc2)c2ncnc(NCCCO)c12	-49%	2.0%	nt	-4%
O=C(CCCN1C(=O)C2C3C=CC(C3)C2C1=O)N1CCN(c2ccccc2)CC1 (stereo not drawn)	-1%	-0.5%	-1	0%
COc1ccc(CC(=O)NC(c2ccccc2)c2ccc(C)cc2)c(OC)c1 (stereo not drawn)	-6%	-2.6%	nt	7%
COc1ccc(NC(=O)CSc2ccc(C)cc2)cc1	-53%	-2.1%	-2	-2%
N=c1n(Cc2ccc(Cl)cc2)c2ccccc2n1CC(O)COc1ccccc1 (stereo not drawn)	?	-3.2%	-10	3%
CCCCOc1ccc(C(=O)Nc2ccc(OCC(=O)N3CCOCC3)cc2)cc1	-3%	1.9%	nt	30%
CCCCC(=O)Nc1cc(C(=O)NCCc2ccccc2)ccc1Cl	-23%	1.4%	3	10%
N#CC1=C(N)Oc2cc(O)ccc2C1c1cccnc1 (stereo not drawn)	1%	?	-7	?
CCc1ccccc1NC(=O)c1cc(C2CC2)on1	-33%	2.8%	1	5%
CC(=O)c1c(N2CCN(CCO)CC2)nc(=S)n(-c2ccccc2)c1C	-6%	?	-2	?
Cc1nc(CS(=O)(=O)c2ccc(Cl)cc2)cc(Sc2ccc(Cl)cc2)n1	9%	0.3%	-5	8%
Cc1cc(C(=O)NCc2ccccc2Cl)c2ccccc2n1	5%	1.2%	nt	4%
CCOC(=O)NN=C1CN(S(=O)(=O)c2ccc(C)cc2)C1	-10%	-5.0%	nt	-9%
C#CCOCCOCCOCCNc1nc(N2CCN(C(=O)[C@H](CCC(=O)O)n3cc(C(N)CO)nn3)CC2)nc(N2CCN(C(=O)[C@H](Cc3ccc(O)cc3)n3cc(C(N)[C@H](C)CC)nn3)CC2)n1 (stereo partly drawn)	-4%	-2.7%	-11	1%
Cc1ccc(-n2cc(CN(C)Cc3ncc[nH]3)c(-c3cccc(C)c3)n2)cc1	14%	-1.4%	4	-18%
COc1cc(-c2nc(-c3ccc(-c4ccccc4)nc3OC)no2)cc(OC)c1OC	-2%	nt	5	nt
Cc1n[nH]c(=O)c2ccccc12	2%	-0.5%	-1	0%
CC(C)C(NC(=O)C1CCCCC1)C(=O)Nc1ccncc1 (stereo not drawn)	-12%	-1.3%	-8	-17%
Cc1ccc(/C=C2/SC(=S)N(CCC(=O)N3CCN(C)CC3)C2=O)cc1	-1%	1.3%	4	-5%
CC(NC(=O)CSc1nc2ccccc2c(=O)n1CCCO)c1ccccc1 (stereo not drawn)	-12%	?	-5	-12%
O=C(N/N=C/c1ccc([N+](=O)[O-])o1)c1ccccc1NS(=O)(=O)c1cccs1	?	0.6%	1	-16%
CC(=O)c1cccc(NC(=O)N2CCC(NC(=O)c3ccco3)CC2)c1	5%	12%	nt	9%
CN(Cc1ccc(F)cc1)C(=O)c1ccc(NS(=O)(=O)c2ccccc2)cc1	nt	4.9%	nt	-8%
CCC(=O)OC1(C)C(=O)C=C2C=C(c3ccc(C#N)cc3)OC=C2C1=O (stereo not drawn)	nt	?	-2	?
CCOc1ccccc1NC(=O)CSc1nnc(-c2cccnc2)o1	nt	0.8%	nt	-2%
c1ccc(-c2noc(-c3ccc4c(c3)OCO4)n2)nc1	?	1.6%	3	3%
COc1ccc(CCNC(=O)Cc2cccs2)cc1	-9%	2.0%	3	-3%
COc1ccc(CC(=O)N(Cc2cc3cc(OC)ccc3[nH]c2=O)C(C)C)cc1	0%	3.9%	4	-4%
NNc1nnc(-c2ccccc2)c(-c2ccccc2)n1	?	1.3%	5	10%
Brc1cc(Br)c2nc3c(cc2c1)CCC3	-6%	0.1%	nt	-22%
CCc1ccc(OCc2n[nH]c(=S)n2C(C)CCCC(C)C)cc1 (stereo not drawn)	9%	-6.2%	-6	12%

Profiles as entered above. Values in the order: miR-21 reporter	Rango complex inh	GLA inh pH 4.5	Rango dissoc inh
Entry for O=C(Nc1ccc2nc(-c3ccco3)c(-c3ccco3)nc2c1)NC1CC1 → -17%	?	-2	?
Entry for c1ccc(-c2noc(-c3ccc4c(c3)OCO4)n2)nc1 → ?	1.6%	3	3%
Entry for Cc1ccc(-n2cc(CN(C)Cc3ncc[nH]3)c(-c3cccc(C)c3)n2)cc1 → 14%	-1.4%	4	-18%
Entry for CN(Cc1ccc(F)cc1)C(=O)c1ccc(NS(=O)(=O)c2ccccc2)cc1 → nt	4.9%	nt	-8%
Entry for Cc1nc(CS(=O)(=O)c2ccc(Cl)cc2)cc(Sc2ccc(Cl)cc2)n1 → 9%	0.3%	-5	8%

Next section:
SMILES	miR-21 reporter	Rango complex inh	GLA inh pH 4.5	Rango dissoc inh
Cn1c2ccccc2c2cnn(CC(=O)O)c(=O)c21	0%	1.7%	2	3%
CCN(C(=O)C(C)Sc1ccc(S(=O)(=O)N2CCOCC2)cn1)c1ccccc1 (stereo not drawn)	nt	-1.0%	nt	15%
CSc1cccc(NC(=S)N2CCC(N(C)C3CCCCC3C)CC2)c1 (stereo not drawn)	-1%	1.7%	-8	10%
O=C(Nc1ccccc1)c1cnc[nH]1	-26%	12%	-14	6%
COc1ccc(NC(C)=O)cc1NS(=O)(=O)c1ccc2c(c1)OCCO2	nt	-3.1%	nt	38%
CN(CC(=O)Nc1ccc(N2CCOCC2)cc1)C(=O)CSc1ccccc1F	nt	-1.2%	nt	-6%
O=C(C1CCCO1)N1CCN(Cc2c(O)ccc3ccccc23)CC1 (stereo not drawn)	6%	-4.8%	15	6%
CCOc1ccc(N(CC(=O)NC2CCCCC2)S(=O)(=O)c2c(C)noc2C)cc1	-5%	4.7%	-3	-11%
COc1cccc(-c2ccc(NC(=O)C3CCCN(Cc4nccn4C)C3)cc2)c1 (stereo not drawn)	-7%	0.0%	nt	4%
CN(Cc1nccn1C)C(=O)c1ccc(OC2CCN(CCc3ccccc3)CC2)cc1	-2%	-2.5%	nt	0%
COc1ccc(C(CNC(=O)C(CC(C)C)NS(=O)(=O)c2ccc(C)cc2)N2CCOCC2)cc1 (stereo not drawn)	nt	-3.2%	nt	10%
CCCc1nnc(NC(=O)CNc2ccc(F)cc2)s1	-4%	-5.6%	2	26%
COc1ccc(-c2cc(C(=O)NN)[nH]n2)cc1OC	8%	-0.1%	3	-11%
Cc1cc(NC(=O)CCCC(=O)N(CC(=O)NCCc2ccccc2)Cc2ccc(F)cc2)no1	1%	-0.2%	0	22%
Cn1c(O)c(/C=C2\C=Nc3ccccc32)sc1=Nc1ccc(C(=O)O)cc1	-13%	?	-3	-20%
NC(=O)N/N=C/c1c(Sc2nnnn2-c2ccccc2)nc2ccccn2c1=O	24%	?	-3	?
O=S(=O)(Nc1ccccn1)c1ccc(C(F)(F)F)cc1Cl	4%	0.8%	-8	-4%
CNC(=O)C(=O)N/N=C/c1cccnc1	5%	-1.5%	3	-6%
Cc1ccc(-n2nc3c(=O)n(CC(=O)NCCc4ccccc4C)nc(C)c3c2C)cc1	2%	-0.3%	nt	-9%
O=C(Nc1ccc(S(=O)(=O)N2CCOCC2)cc1)c1ccc(Br)o1	-5%	-1.7%	-6	7%
O=C(CSC1=NCCN1)Nc1cccc(C(F)(F)F)c1	13%	0.0%	0	2%
COc1ccc(Cc2n[nH]c(=S)n2N)cc1OC	-11%	-1.2%	9	9%
CCCN(CC(=O)Nc1ccccc1C)C(=O)C1CC(=O)N(Cc2ccccc2)C1 (stereo not drawn)	nt	4.9%	nt	-3%
O=C(NCCc1ccccc1)c1cnc2ccccn2c1=O	-25%	5.7%	0	-5%
COc1ccc(OC)c(NC(=O)c2ccc(CN3CCc4ccccc4C3)cc2)c1	4%	-2.7%	nt	0%
CN1C(C(=O)NCCc2cccs2)CC2Cn3c(nc4cc(Cl)c(Cl)cc43)C21 (stereo not drawn)	3%	1.8%	-7	30%
COc1ccc(/C=N/NC(=O)c2cccc(COCC(F)(F)C(F)F)c2)cc1	-24%	?	-23	1%
CCCOc1ccccc1NC(=O)CC1Nc2ccccc2NC1=O (stereo not drawn)	-4%	?	3	-26%
COc1ccc(CCn2cnc(=O)c(C#N)c2C)cc1OC	-1%	-0.1%	2	0%
Cc1ccc(C)c(N2CCN(C(=O)CCc3nc(-c4cccc(Br)c4)no3)CC2)c1	nt	-4.5%	nt	5%
Cc1c(NC(=O)COC(=O)c2cccn2C)c(=O)n(-c2ccccc2)n1C	nt	0.0%	nt	5%
Cc1ccc(OCC(=O)Nc2ccncc2)cc1	-6%	6.9%	nt	-7%
CCCCc1nn(-c2cc(Cl)ccc2OC)c2c1C(=O)CC(C)(C)C2	9%	-0.5%	-8	-17%
CCOC(=S)SCC(=O)N1CCc2ccccc2C1C1C(=O)CC(C)(C)CC1=O (stereo not drawn)	1%	-2.3%	5	6%
O=C(NCC(=O)N(Cc1cccs1)C(C(=O)NC1CCCC1)c1cccnc1)c1ccco1 (stereo not drawn)	0%	0.0%	-3	14%
CC(=O)c1ccc(OCC(=O)N(C)CC(=O)Nc2ccc(N3CCOCC3)cc2)cc1	nt	2.5%	nt	0%
CCC(=O)Nc1nnc(SCCN2CCOCC2)s1	-13%	-1.2%	8	-14%
CN(C)c1ccc(S(=O)(=O)N2CCCCC2)cc1NC(=O)CN1C(=O)NC2(CCCC2)C1=O	nt	0.7%	nt	-8%
CCC(=O)N1CCCc2cc(S(=O)(=O)N3CCCc4ccccc43)ccc21	5%	0.1%	1	-14%
COc1cc(C)c(-c2[nH]ncc2-c2csc(C)n2)c(O)c1	-4%	0.5%	-13	2%
Cc1ccccc1COc1ccc(/C=N/NC(=O)c2nnn(-c3nonc3N)c2CN2CCC(C)CC2)cc1	-7%	4.2%	nt	6%
CC1CCCCC1NC(=O)C1CC=CCC1C(=O)O (stereo not drawn)	2%	-1.9%	-9	6%
CCCCN(C)C(=O)c1nc2ccccn2c1CN1CCN(c2ccccn2)CC1	1%	2.0%	-2	-3%
CCOC(=O)c1c(C)[nH]c(C2=NNC(=Nc3ccccc3)SC2)c1C	16%	-1.4%	-26	-2%
N#CCCN(C(=O)Nc1ccccc1)C1CCCCC1	nt	2.9%	nt	17%
COc1cc2c(cc1OC)C(C1C(=O)CC(C)(C)CC1=O)N(C(=O)CCl)CC2 (stereo not drawn)	4%	?	1	?
Cc1cccc(OCCOCCN2CCNCC2)c1C	-5%	-2.6%	-6	-4%

Screening data (PubChem BioAssay)
